Source: PubChem
PINK1 modulator: modulators of PINK1 expression | 410,000 compounds, 0.2% hits | PINK1 immunofluorescence, high-content cytometry, 24 h | Potency, µM (series often up to 76.6 µM), for the others: at the top dose activation (PINK1 increase), hits mostly activators; active = well fitted activation curve with a large enough effect; inconclusive = small, poorly fitted or top-dose-only effect; inactive = flat fitted curve, though single readings scatter; cell line not stated here;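 note: potency is the fitted concentration of half-maximal effect; % of control where 0% means no effect; nearly all actives have a fitted effect of over 65% in size; a mitochondrial uncoupler was the plate control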
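Readout is PINK1 immunofluorescence, quantified alongside mitochondrial, cell and nuclear markers by laser-scanning microplate cytometry. Cells from a stable line were exposed to compound titrations (5 concentrations) for 24 hours, with CCCP controls.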
gsp agonist: agonists of gsp mutant (McCune-Albright syndrome) | gsp mutant cells, cAMP HTRF, 30 min; control for the full effect not named in the record | Potency, µM (top dose mostly 76.9 µM), without a hit: at the highest dose activation (cAMP increase), actives largely listed as activators | 340,000 compounds, 0.13% hits | AID 624287; active = well fitted activation curve with a large enough effect; inconclusive = small, poorly fitted or top-dose-only effect, or another doubt; inactive = no such curve, though single readings can be large or run the other way; cell line not stated here;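 note: phosphodiesterase inhibitor Ro 20-1724 added with compounds to block cAMP breakdown; potency is the fitted concentration of half-maximal effect; nearly all actives have a fitted effect of over 60% in size; about a fifth of the inactives were tested at one dose only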
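Cells in DMEM/10% FBS with G418 were pretreated with compounds in DMSO plus […] (300 uM stock) for 30 min at 37C. cAMP was measured by HTRF (cAMP-d2 plus anti-cAMP antibody-K) after 30 min at room temperature.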
ClpP mod: qHTS Assay for Activators of ClpP; ATP-dependent Clp protease proteolytic subunit (Bacillus subtilis (strain 168)), P80244; purified B. subtilis ClpP, FRET peptide cleavage, 20 min; Potency, µM (top dose mostly 57.5 µM), inactives show top-dose activity change, negative = active; 340,000 compounds, 1.9% hits; active = well fitted falling curve with a large enough effect; inconclusive = small, poorly fitted or top-dose-only effect; inactive = no such curve, though single readings can be large or run the other way; note: potency is the fitted concentration of half-maximal effect; the source files actives as falling curves though it sought activators and does not explain the sign; nearly all actives have a fitted effect of over 65% in size; many hits overshoot -100%
Target sequence (P80244 whole entry, looked up): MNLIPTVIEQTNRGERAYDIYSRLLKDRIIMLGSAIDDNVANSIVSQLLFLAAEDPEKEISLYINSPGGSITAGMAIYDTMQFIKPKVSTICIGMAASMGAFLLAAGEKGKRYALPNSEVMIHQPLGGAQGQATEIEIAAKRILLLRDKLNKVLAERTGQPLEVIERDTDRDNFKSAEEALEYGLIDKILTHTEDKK
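Buffer: 100 mM Tris/HCl pH8, 100 mM KCl, 0.05% low protease BSA, 2.5% glycerol, 0.01% Tween-20. ClpP 10 microg/mL final; 20 min RT; delta FRET normalized to ADEP and DMSO controls.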
D2 ag: agonists of human D2 dopamine receptor (beta-arrestin); P14416; DiscoveRx PathHunter D2 beta-arrestin, luminescence, 90 min; 100% = 57 uM dopamine signal; activation, % (concentration not given with the values); 360,000 compounds, 0.084% hits; AID 624465; in the data active = activation above about 40%; inconclusive = about 15% to 40%; inactive = below about 15%; note: the text of the record calls up to 30% inactive
Target sequence (P14416 whole entry, looked up): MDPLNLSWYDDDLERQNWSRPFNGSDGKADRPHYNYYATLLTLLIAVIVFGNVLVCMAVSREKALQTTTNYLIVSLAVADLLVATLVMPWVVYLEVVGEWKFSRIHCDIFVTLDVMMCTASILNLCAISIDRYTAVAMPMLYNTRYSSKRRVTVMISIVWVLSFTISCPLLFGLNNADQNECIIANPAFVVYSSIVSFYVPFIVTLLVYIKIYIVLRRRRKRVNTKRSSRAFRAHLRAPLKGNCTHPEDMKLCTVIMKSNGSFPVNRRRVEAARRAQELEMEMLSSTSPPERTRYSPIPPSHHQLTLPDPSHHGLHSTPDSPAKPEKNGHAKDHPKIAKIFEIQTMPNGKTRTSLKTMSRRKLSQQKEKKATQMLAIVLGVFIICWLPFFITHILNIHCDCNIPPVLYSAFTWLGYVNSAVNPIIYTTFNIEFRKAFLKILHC
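Agonist mode: compounds alone added to overnight-plated D2 PathHunter cells for 90 min at 37 C, with 57 uM final dopamine (EC100) defining full response. Beta-arrestin recruitment detected by chemiluminescent reagent, read after 1 h at ambient temperature.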
Sfp PPTase inh: Sfp phosphopantetheinyl transferase inhibition; Biochemical Sfp PPTase activity, qHTS; Potency, µM, for the others: max response, negative = inhibition, actives largely listed as inhibitors; 310,000 compounds, 3.5% hits; AID 1490; active = well fitted inhibition curve with a large enough effect; inconclusive = small, poorly fitted or top-dose-only effect, or another doubt; inactive = no such curve, though single readings can be large or run the other way;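 note: the enzyme is Sfp with the accession as filed and its product quenches rhodamine fluorescence; potency is the fitted concentration of half-maximal effect; 0% = enzyme reaction without inhibitor and -100% = no enzyme wells; top concentration of the series not given in the record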
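Compounds were incubated with enzyme (final 15 nM) for 15 min at room temperature before substrate addition started the reaction. Fluorescence at 525 nm excitation, 598 nm emission was recorded immediately and after 30 minutes.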
Menin MLL FP FL: inhibitors of human menin-MLL interaction, wild-type MLL peptide; Fluorescence polarization, fluorescein-MLL peptide displacement from menin; FP activity change, % at 61.4 µM; 290,000 tested, under 10 active; AID 1766; inconclusive = falling polarisation curve, or a change in total fluorescence; inactive = total fluorescence flat and polarisation flat or rising; no compound was filed as active; the % refers to the polarisation; negative = inhibition;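 note: % of control where 0% means no effect; inhibitors lower the polarisation; unlabelled MLL peptide was the positive control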
gsp antag: antagonists of gsp mutant (McCune-Albright syndrome) | gsp-mutant cells, cAMP HTRF, 30 min; control for the full effect not named in the record | 340,000 compounds, 0.4% hits | Potency, µM (titrated, usually from 76.9 µM), for inactives: at the top dose activity change, negative = inhibition, actives largely listed as inhibitors | AID 624288; active = falling curve of any shape with a large fitted effect; inconclusive = falling curve, mostly with a smaller effect; inactive = flat or rising curve; cell line not stated here;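 note: intracellular cAMP measured with PDE inhibitor Ro 20-1724 present during compound exposure; potency is the fitted concentration of half-maximal effect; % is set by controls: 0 for no effect and ±100 for the full control effect; nearly all actives have a fitted effect of over 65% in size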
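HTRF cAMP measurement after 30 min RT detection following 30 min, 37C compound treatment alongside […] (added as 300 uM solution) in G418-selected cells seeded at 2000/well and grown 16–24 h.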
An asterisk follows results filed as active; ? = inconclusive; / = no result given; & = joins results of further samples; [ ] = dose if it differs, or a comment.

SMILES | PINK1 modulator | gsp agonist | ClpP mod | D2 ag | Sfp PPTase inh | Menin MLL FP FL | gsp antag
COc1ccc(NC(=O)COc2ccc(C(=O)OCC(=O)N(C)C3CCS(=O)(=O)C3)cc2OC)cc1 (stereo unspecified) | 0.3% | -8%[15.4 µM] | 0.0% | -3.0 | 1% | -3.1 | 11%
Cc1ccc(NC(=O)CCn2c(=S)oc3ccccc32)cc1F | 0.3% | -1%[15.4 µM] | / | 0.9 | -1% | 12 | -1%
CCCCNc1ncnc2c1cnn2-c1ccc(C)cc1C | 3.0% | -74% | -8.0% | 3.8 | 20% | 1.0 | -3%
Cc1ccc(C(=O)Oc2ccc(Cl)c3cccnc23)cc1[N+](=O)[O-] | -0.3% | 27% | -9.1% | -11 | 11% | -1.5 | 7%
CC1(C)CCC(=O)N(c2ccc(OC(F)(F)F)cc2)C1=O | -0.5% | ? | -1.3% | 4.4 | -7% | -2.4 | 4%
C[C@H](CO)N1C[C@H](C)[C@@H](CN(C)C(=O)Nc2ccc3c(c2)OCO3)Oc2c(NS(=O)(=O)c3ccccc3)cccc2C1=O | -0.2% | -1% | -4.9% | -1.5 | / | / | 1%
CC1CCN(c2ccc3c(c2)S(=O)(=O)c2cccc(C(=O)NC[C@@H]4CCCO4)c2C3=O)CC1 | 0.5% | -9% | 0.7% | 11 | / | / | -22%
COc1ccc(NC(=O)COC(=O)Cn2cnc3ccccc3c2=O)cc1OC | 1.6% | 12% | / | -2.1 | 17% | 0.9 | 3%
CC(=O)Nc1ccc(-c2ccnc3c2CC(C)(C(=O)Nc2cccc(OC(F)(F)F)c2)O3)cc1 (stereo unspecified) | 8.3% | / | 4.7% | 5.9 | / | / | /
COC(=O)c1cc(Br)c(=O)n(-c2ccccc2F)c1 | 3.4% | ? | -2.1% | -3.4 | -11% | 2.1 | 14%
Brc1ccc(Nc2c3c(nc4ncnn24)CCC3)cc1 | -1.9%[38.3 µM] | 10% | 0.6% | 4.0 | 3% | -0.9 | -14%
CCn1cc(/C=C(\NC(=O)c2ccc(OC)cc2)C(=O)NCCCn2ccnc2)c2ccccc21 | -5.1%&2.6% | -19% | -1.3%&0.0% | -7.1 | / | / | /
O=C(C1CCCC1)N1CCN(S(=O)(=O)c2cccc(Cl)c2Cl)CC1 | -0.3% | ? | / | -1.9 | 9% | 1.0 | 8%
CCCCN(C(=O)c1cc(S(=O)(=O)N2CCCCCC2)ccc1OC)c1ccccc1 | 17% | 2%[15.4 µM] | -0.3% | 1.1 | / | / | -13%
CC(C)Oc1ccc(C(=O)CCN2CCOCC2)cc1 | 4.6% | -7% | 1.1% | -4.0 | / | / | -14%
Cc1ccc(NC(=O)COC(=O)Cc2c(F)cccc2Cl)cc1S(=O)(=O)N1CCOCC1 | -1.9% | -40%[inhibitor] | -2.3% | -0.1 | / | / | -8%
CC1CCN(C(=O)CSc2nc3c(c(=O)n(C)c(=O)n3C)n2C)CC1 | 1.4% | 23%[15.4 µM] | / | -3.5 | -3% | 0.2 | 5%
O=C(Nc1ccncc1)c1cncc(Br)c1 | -2.3%[38.3 µM] | -42%[inhibitor] | -0.5% | -1.1 | -3% | 3.8 | 0%
COc1ccc(Cc2c(O)nc(SCC(=O)NC(C)(C)C)[nH]c2=O)cc1 | -0.6% | 5%[15.4 µM] | 0.5% | 2.9 | 3% | -3.8 | -3%
Fc1ccc(CSc2nc3ncc(Br)cc3[nH]2)cc1 | 4.6% | 17% | 0.7% | -2.4 | 3% | 5.7 | -12%
O=C(CN1C(=O)/C(=C/c2ccccc2F)Oc2ccccc21)N1CCN(c2ccccn2)CC1 | 3.0% | -11%[15.4 µM] | -1.5% | -2.7 | 10% | 4.7 | 9%
Cc1[nH]c2ccccc2c1C(=O)COC(=O)c1nccnc1N | -1.0% | 31% | 3.8% | 3.2 | / | / | -10%
O=C(c1ccccc1)c1ccc(Oc2ccc(C(=O)O)c(C(=O)O)c2)cc1 | 3.9% | -19% | 0.9% | 1.3 | 4% | -1.1 | 4%
COc1cc(NC(=O)CC(C)S(=O)(=O)c2ccc3c(c2)NC(=O)CO3)cc(OC)c1OC (stereo unspecified) | 0.3% | 26% | -1.5% | -1.3 | -4% | / | 18%
COc1ccc(/C(N)=N/OC(=O)Oc2ccccc2)cc1OC | 1.1% | 28% | -3.8% | 1.2 | -14% | 10 | -4%
(list continues)
SMILES | PINK1 modulator | gsp agonist | ClpP mod | D2 ag | Sfp PPTase inh | Menin MLL FP FL | gsp antag
O=C(Nc1ccccc1)c1ccccc1N=Cc1cccc(O)c1 | -2.1% | -2% | / | 3.6 | -10% | -1.6 | 5%
Cc1nn(C)c(NC(=O)c2ccccc2Cl)c1Cl | -0.7% | 11% | 0.5% | 1.7 | 9% | -3.2 | 13%
Cc1ccc(S(=O)(=O)NC(=NCC(=O)O)c2ccc(F)cc2)cc1 | 3.1%[38.3 µM] | 1% | 0.2% | -3.9 | -14% | -0.5 | 8%
O=C(NCc1ccc(N2CCCC2=O)cc1)c1cc(COc2c(F)cccc2F)on1 | ? | -30% | 0.8% | -1.9 | 4% | / | 6%
Cc1[nH]c2ccccc2c(=O)c1CN(C)Cc1ccccc1 | -1.5% | -17% | -6.7% | -2.0 | 14% | -0.1 | 5%
Cc1nnc(Sc2nc3ccccc3o2)c2ccccc12 | -0.7% | 2% | -0.1% | -3.1 | 7% | 1.8 | 6%
CC(=O)C1C(c2cccc(F)c2)c2c(n[nH]c2C)CC1(C)O (stereo unspecified) | 1.8% | ? | 2.1% | -3.1 | 22% | 3.7 | 7%
COc1ccc(C2/C(=C(/O)c3ccccc3)C(=O)C(=O)N2CC(C)O)c(OC)c1 (stereo unspecified) | 0.9% | 7% | -6.7% | 3.5 | -4% | 2.6 | 5%
CCn1nc(C)cc1Nc1ccccc1 | / | 7% | -1.0% | -1.1 | -4% | -0.1 | 1%
Cc1ccc(CNC(=O)CN2C(=O)CSc3ccc(S(=O)(=O)N4CCCCC4)cc32)cc1 | 3.6% | -32%[inhibitor] | -0.6% | -1.4 | 1% | 1.8 | -11%
CC(C)NC(=O)CN1CCC(c2ccccc2)C(O)C1 (stereo unspecified) | 0.2% | -5% | -0.3% | -1.4 | 18% | -6.8 | 6%
O=S(=O)(NCc1ccccc1)c1cccc2nsnc12 | -0.6% | 2% | -1.3% | -3.8 | 0% | 4.3 | 0%
Cc1ccc(Cl)cc1N1CCN(C(=O)Cc2c(C(=O)O)[nH]c3ccccc23)CC1 | ? | 9% | -10% | -2.2 | ? | 0.0 | -17%
O=C(NNC(=O)c1ccccc1F)c1ccc(S(=O)(=O)N2CCCC2)cc1 | -0.3% | 20%[15.4 µM] | -0.2% | -2.2 | / | / | -10%
COc1cc(CN/C(C)=C(\C#N)C(N)=O)cc(OC)c1OC | -1.2%[38.3 µM] | -41%[inhibitor] | -1.4% | 2.8 | 23% | 3.3 | 8%
CC(=O)Nc1ccc(NC(=O)COC(=O)CCc2nc3ccccc3s2)cc1 | -0.3% | 4% | / | -0.6 | 11% | 0.1 | -2%
O=C(Nc1ccc(N2CCOCC2)cc1N1CCOCC1)c1ncoc1-c1cccc(F)c1 | 0.5% | 18%[15.4 µM] | / | -1.4 | -6% | / | ?
CCOc1ncc(S(=O)(=O)N2CCN(CC)CC2)cc1C(=O)O | 1.0% | -1% | 0.0% | -2.7 | 10% | 0.0 | 6%
C/C(=N\NS(=O)(=O)c1ccc(C)c([N+](=O)[O-])c1)c1ccc2c(c1)OCO2 | 0.0% | -12% | -4.1% | -5.4 | -14% | -2.2 | -3%
C[C@@H]1NC(=O)[C@H](CCC(N)=O)NC(=O)c2cc([N+](=O)[O-])cc(I)c2NCC[C@@H](C(N)=O)NC1=O | -0.3% | 4% | -0.1% | -1.5 | 2% | 2.2 | ?
COc1cccc(N2CC(C(=O)Nc3nnc(SCCC4OCCO4)s3)CC2=O)c1 (stereo unspecified) | -0.1% | 6%[15.4 µM] | -1.4% | -3.7 | -12% | / | -8%
CC(CCc1ccccc1)OS(N)(=O)=O (stereo unspecified) | 1.1% | -53%[inhibitor] | 0.8% | -2.2 | 8% | 1.6 | 9%
O=C(CCC(=O)c1cccs1)Nc1nc2ccccc2s1 | -0.2% | 25%[15.4 µM] | / | 0.4 | / | / | -13%
NC(=S)N/N=C/c1cccc(O)c1O | 0.6% | -13% | / | 2.5 | 15% | -2.4 | -5%
COc1cc2c(cc1NC(=O)CSc1nnc(COc3ccc(Cl)cc3)n1C)oc1ccccc12 | 0.8%[38.3 µM] | -1% | -4.8% | -3.3 | -4% | 6.4 | -1%
Additional entries follow.
SMILES | PINK1 modulator | gsp agonist | ClpP mod | D2 ag | Sfp PPTase inh | Menin MLL FP FL | gsp antag
Cc1cccc(C)c1NC(=O)CCCn1nc(C)c2c(C)n(-c3ccccc3)nc2c1=O | 0.5% | ? | -0.9% | 2.7 | 5% | / | 7%
CN(C)S(=O)(=O)c1ccc(C(=O)NC(=O)CSc2nnnn2C)cc1 | 2.5% | 0%[15.4 µM] | 1.7% | -1.1 | / | / | 4%
CC(=O)Nc1ccc(S(=O)(=O)NCc2ccc3[nH]c(C)cc3c2)cc1 | 0.7% | ? | -2.6% | -0.2 | 2% | -13 | 7%
Cc1ccc(-n2ncc3c(NCC4CCCO4)ncnc32)c(C)c1 (stereo unspecified) | 1.9% | -90%[inhibitor] | -5.3% | 0.6 | 10% | 5.0 | -1%
COc1ccc(S(=O)(=O)N2CCOCC2)cc1NC(=O)c1c(C)noc1C | 2.2% | -6% | -0.5% | -0.1 | / | / | /
NC(=O)N/N=C/c1ccc2cccc(OCc3ccccc3)c2n1 | 2.4% | 5%[15.4 µM] | / | 0.7 | -6% | 3.5 | 14%
CC(=O)c1cc2c(cc1NC(=O)c1ccc(C)cc1)OCCO2 | 3.6% | 16% | 25% | 0.7 | -1% | -2.2 | -15%
O=C(N/C(=C/C=C/c1ccccc1)C(=O)N1CCOCC1)c1ccccc1Br | 5.1% | -8%[15.4 µM] | / | -4.1 | -10% | 6.5 | /
Cc1ccc(C)c(OCC(=O)N2CCN(C(=O)c3ccco3)CC2)c1 | 0.8% | -6% | -5.3% | -1.8 | 2% | 0.2 | 12%
Cc1ccc(N2C(=O)C(CC(=O)Nc3cccc(F)c3)N(C3CC3)C2=O)cc1 (stereo unspecified) | -0.1% | 17% | -0.7% | -3.0 | 15% | -1.5 | 5%
Cc1ccc(S(=O)(=O)N(C)CC(=O)NNC(=O)CCC(=O)c2ccc(F)cc2)cc1 | 3.3% | 7%[15.4 µM] | 2.2% | -0.4 | / | / | 7%
O=C(NC1CCSc2ccccc21)c1ccccc1Br (stereo unspecified) | 0.3% | -21% | -1.2% | -3.2 | -9% | / | 9%
